Bioassay records (PubChem BioAssay)
GIV Gai3 FP: blocks GIV peptide binding to rat Galpha-i3. P08753. percent of control (FP), % (test concentration not listed). AID 1224905. 210,000 compounds, 0.42% hits. Galpha-i3/FITC-GIV peptide fluorescence polarization, 90 min; stronger effect = lower value; scaled: aluminum fluoride 0%, vehicle 100%;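 active = replicate mean at 85% of control or lower, very high polarization wells dropped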;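 note: wells of about 15 µL received 100 nL stock; the first replicate is given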
Target sequence (P08753 whole entry, looked up): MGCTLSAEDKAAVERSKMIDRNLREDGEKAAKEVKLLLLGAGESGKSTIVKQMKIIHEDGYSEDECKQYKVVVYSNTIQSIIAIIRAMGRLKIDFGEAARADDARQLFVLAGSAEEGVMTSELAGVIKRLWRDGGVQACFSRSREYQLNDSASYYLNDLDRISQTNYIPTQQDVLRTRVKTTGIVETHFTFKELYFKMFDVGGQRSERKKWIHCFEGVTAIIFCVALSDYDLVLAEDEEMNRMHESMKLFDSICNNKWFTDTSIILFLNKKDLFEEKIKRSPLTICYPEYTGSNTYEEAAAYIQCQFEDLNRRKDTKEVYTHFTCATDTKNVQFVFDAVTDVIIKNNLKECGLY
Active calls of the source: *.

cpd	Compound	GIV Gai3 FP
1	CCOC(=O)C1=CS/C(=C2/C(=S)C(C)(C)Nc3ccc(C)cc32)S1	96
2	CC1=NN(c2ccc(C)cc2C)C(=O)C12C(c1ccccc1Cl)C21C(=O)N(c2ccc(Cl)cc2C)N=C1C (stereo not drawn)	101
3	CCc1ccc(C(=O)N2CCN(c3cc(-c4ccc(C)cc4)ncn3)CC2)cc1	109
4	CCOc1ccc(NC(=O)NCc2nnnn2-c2ccc(OCC)cc2)cc1	97
5	Fc1ccc(Nc2nc(NCCC3=CCCCC3)nc(N3CCOCC3)n2)cc1	99
6	COc1ccc(Cn2cccc(S(=O)(=O)N3CCC(C)CC3)c2=O)cc1F	107
7	O=C1CC(c2cc(Br)ccc2F)c2cnn(-c3nc4ccccc4s3)c2N1 (stereo not drawn)	103
8	COC(=O)C1C(c2ccc(OC)cc2)C(C(=O)OC)S(=O)(=O)C(CCN2CCOCC2)S1(=O)=O (stereo not drawn)	112
9	CC(=O)C12c3ccccc3C(c3ccccc31)C1C(=O)N(c3ccc(Cl)cc3[N+](=O)[O-])C(=O)C12 (stereo not drawn)	115
10	CCOC(=O)C1=C(CSc2nc(C)c(C)c(C)c2C#N)OC(N)=C(C#N)C1c1ccccc1 (stereo not drawn)	106
11	COCCNC(=O)C1CCCc2c1[nH]c1ccccc21 (stereo not drawn)	99
12	CCOc1ccccc1CNC(=O)C1CCN(c2ncccc2-c2nc(-c3cccc(C)c3)no2)CC1	100
13	O=C(Nc1ccccc1-c1ccc2ccccc2n1)c1c(F)cccc1F	101
14	O=C(CSc1nnc(NC(=O)NC2CCCCC2)s1)NCc1ccccc1	102
15	COc1ccccc1Oc1cc(-c2cccc(C(=O)NCc3ccc(C)cc3)c2)ncn1	103
16	Cc1c(NC(=O)CSc2nc3ccc(N4C(=O)c5ccccc5C4=O)cc3s2)c(=O)n(-c2ccccc2)n1C	100
17	Cc1cc(N)nn1C(=O)CSc1nc2ccccc2c(=O)n1CC1CCC(C(=O)NCCc2ccccc2)CC1 (stereo not drawn)	100
18	CC(=O)c1ccc(N2C(=O)C3C4c5ccccc5C(C)(c5ccccc54)C3C2=O)cc1 (stereo not drawn)	116
19	CCOC(=O)c1c(CN2CCN(c3ccccc3)CC2)n(C)c2ccc(OC)c(S(=O)(=O)c3ccccc3)c12	119
20	Cc1nnc(NC(=O)CSc2nnc(CNC(=O)c3ccco3)n2-c2ccc([N+](=O)[O-])cc2)s1	116
21	COc1cccc(-c2nc3sc4c(c3c(=O)n2CC(=O)N2CCN(c3ccc(F)cc3)CC2)CCCC4)c1	116
22	CN1CCN(C(=O)C2CCCN(c3nnc4c(Cl)cccn34)C2)CC1 (stereo not drawn)	107
23	CC(c1ccccc1)N1C(=O)/C(=C/c2c(N3CCN(C)CC3)nc3ccccn3c2=O)SC1=S (stereo not drawn)	225
24	COc1ccc(CC(=O)Nc2cccc(-c3ccc4ccccc4n3)c2)cc1	107
25	Cc1cc([N+](=O)[O-])cc(-c2nc3nc(-c4cc(C(C)(C)C)cc5c4CCC5(C)C)cn3[nH]c2=O)c1N	146
26	O=C1C2C3C=CC(O3)C2C(=O)N1c1cccc(Br)c1 (stereo not drawn)	109
27	COc1ccccc1Oc1ccc(-c2ccc(C(=O)NC(C)C)cc2)nn1	105
28	COc1ccc(Cc2nc3c4c(-c5ccccc5)c(-c5ccccc5)oc4ncn3n2)cc1	108
29	O=C(C1CC1)N1CCc2c([nH]c3ccccc23)C1c1ccc(F)cc1 (stereo not drawn)	101
30	Cc1cc(C)c(S(=O)(=O)NCC23C=CC(O2)C2C(=O)N(Cc4ccccc4)C(=O)C23)c(C)c1 (stereo not drawn)	101
31	CC1(C)CC(=O)C2=C(C1)C(c1ccc(-c3cccc([N+](=O)[O-])c3)o1)Nc1ccc3ccccc3c12 (stereo not drawn)	107
32	O=C1CC(c2ccc(Br)cc2)c2cnn(-c3ccc(F)cc3)c2N1 (stereo not drawn)	103
33	Cn1cnc2c(C(=O)N3CCN(c4ccccn4)CC3)nn(-c3ccccc3)c2c1=O	109
34	CN1C(=O)N(C)C2(c3ccccc3)N(N)C(N)=NC12c1ccccc1 (stereo not drawn)	117
35	COc1cccc(-c2nc(CS(=O)(=O)c3ccc(Cl)cc3)no2)c1OC	96
36	O=C1CC(c2cccc(Br)c2)c2scc(-c3ccccc3)c2N1 (stereo not drawn)	101
37	Cc1ccc(C(=O)N/C(=C\c2ccc(F)cc2)C(=O)Nc2c(C)n(C)n(-c3ccccc3)c2=O)cc1	105
38	O=C(c1ccccc1Br)N1CCN(C2=NS(=O)(=O)c3ccccc32)CC1	109
39	O=C1CC(c2c(Cl)cccc2Cl)c2ccc3ccccc3c2N1 (stereo not drawn)	110
40	CCOC(=O)c1c(S(=O)(=O)NCC(=O)Nc2ccc(F)cc2F)c(C)n(CC)c1C	100

Taken from above.
Value for #21 under GIV Gai3 FP: 116
Value for #37 under GIV Gai3 FP: 105
Value for #23 under GIV Gai3 FP: 225
Value for #26 under GIV Gai3 FP: 109
Value for #31 under GIV Gai3 FP: 107

Back to the main list with the five entries that preceded the break.
cpd	Compound	GIV Gai3 FP
36	O=C1CC(c2cccc(Br)c2)c2scc(-c3ccccc3)c2N1 (stereo not drawn)	101
37	Cc1ccc(C(=O)N/C(=C\c2ccc(F)cc2)C(=O)Nc2c(C)n(C)n(-c3ccccc3)c2=O)cc1	105
38	O=C(c1ccccc1Br)N1CCN(C2=NS(=O)(=O)c3ccccc32)CC1	109
39	O=C1CC(c2c(Cl)cccc2Cl)c2ccc3ccccc3c2N1 (stereo not drawn)	110
40	CCOC(=O)c1c(S(=O)(=O)NCC(=O)Nc2ccc(F)cc2F)c(C)n(CC)c1C	100
41	COc1cccc(-n2nnc3c(N4CCN(C(=O)C5CC(=O)N(c6ccccc6)C5)CC4)ncnc32)c1 (stereo not drawn)	98
42	Cc1ccc(S(=O)(=O)N2CCC3(CC2)NCCN=C3NCc2ccccc2C)c(C)c1	105
43	COc1cccc(C2Nc3ccc4ccccc4c3C3=C2C(=O)CC(C)(C)C3)c1OC (stereo not drawn)	114
44	CC(=O)Nc1ccc(Nc2ncnc3c2c(-c2ccccc2)cn3-c2ccc(F)cc2)cc1	117
45	Cc1ccc(-c2nc(Cn3nnc(-c4nc(-c5ccc(C)c(C)c5)no4)c3C)c(C)o2)cc1	107
46	CCOc1ccccc1NC(=O)c1c(NC(=O)c2cc([N+](=O)[O-])ccc2Cl)sc2c1CCCCC2	101
47	COc1ccc(Cn2nnc3cc(C(=O)N4CCN(c5ccccn5)CC4)ccc32)cc1	105
48	O=S(=O)(c1cc(-c2noc(C3CCCC3)n2)cs1)N1CCC2(CC1)OCCO2	100
49	O=C(Cn1cnc2ccccc2c1=O)NCC(=O)N1CCN(c2ccccn2)CC1	100
50	CCOC(=O)N1CCC2(CC1)N=C(c1ccc(F)cc1)CC(c1cc(Cl)ccc1O)N2 (stereo not drawn)	105
51	CCCNC(=O)c1ccc2c(=O)n(Cc3ccccc3)c(SCc3cccc(OC)c3)nc2c1	104
52	CCOC(=O)C1=C(C(=O)OCC)SC2(S1)C(C(=O)OCC)=C(C(=O)OCC)SC1=C2c2ccccc2N(C(=O)CC(C)C)C1(C)C	104
53	O=C(C1CCN(S(=O)(=O)c2ccc3[nH]c(=O)ccc3c2)CC1)N1CCN(c2ccccc2F)CC1	98
54	Cc1nn(-c2ccc3nncn3n2)c2c1C(c1ccc(OCC(C)C)cc1)CC(=O)N2 (stereo not drawn)	97
55	O=C(CSc1nc2cc(C(=O)NCCCN3CCOCC3)ccc2c(=O)n1CC1CCCO1)c1ccccc1 (stereo not drawn)	108
56	CCOc1ccccc1N/C(SCc1ccccc1Cl)=C(/C#N)C(=O)NCCc1ccc(OC)c(OC)c1	103
57	O=C(NCCOc1ccccc1)c1nc(-n2cnnc2)ccc1Br	106
58	CSc1sc(C)cc1-c1nsc(=O)o1	89
59	Cc1ccc(S(=O)(=O)c2cnc(N3CCN(c4ccccc4Cl)CC3)nc2N)cc1	106
60	CCOc1ccc(NC(=O)c2ccc(N3CC4CC(C3)c3cccc(=O)n3C4)c(NC(=O)CCN3CCOCC3)c2)cc1 (stereo not drawn)	107
61	Clc1ccc(CN2CCN(Cc3ccc(Cl)cc3)C2c2ccncc2)cc1	108
62	CCOCCn1cnc2sc(C(=O)NC3CCCCCC3)c(C)c2c1=O	115
63	CCOCCCNC(=O)C1CCN(c2ncnc3c2oc2ccccc23)CC1	104
64	CC1CCCN(S(=O)(=O)c2cc(C(=O)Nc3ccc(Cl)c(Cl)c3)ccc2F)C1 (stereo not drawn)	123
65	CCc1ccc(-n2c(=S)sc3c(=O)[nH]c(SCC4OCCO4)nc32)cc1	107
66	CCc1ccccc1NC(=O)c1c(NC(=O)C(C)(C)C)sc2c1CCC2	104
67	CCCN1CCN(c2ncnc3sc(C(=O)N4CCN(c5ccccc5F)CC4)c(C)c23)CC1	103
68	Cc1cccc(Nc2cc(NCc3ccccc3)c3noc4c3c2C(=O)c2ccccc2-4)c1	109
69	COC(=O)C1=C(C(=O)OC)SC(=C2C(=S)C(C)(C)N(C(=O)c3ccccc3-c3ccccc3)c3ccc(C)cc32)S1	106
70	O=C(Cn1nc(C(=O)Nc2ccccc2)ccc1=O)Nc1cccc(Cl)c1	101
71	N#Cc1c(N)nc(SCC(=O)c2cc3ccccc3oc2=O)c(C#N)c1-c1cccc(O)c1	122
72	Cc1ccc(CNS(=O)(=O)c2cc(-c3nc(C(C)(C)C)cs3)cs2)cc1	102
73	CCCN(Cc1ccc(C(C)C)cc1)Cc1cc(=O)n2cc(C)sc2n1	103
74	CCCOc1ccc(CN2CCCC2c2cc(C(C)C)on2)cc1OC (stereo not drawn)	116
75	Cc1cc(NC(=O)/C(=C/c2ccc3c(c2)OCO3)NC(=O)c2ccccc2Br)ccc1Br	107
76	Cc1nn(-c2ccc3nnc(C)n3n2)c2c1C(c1ccc(OCc3ccccc3)cc1)CC(=O)N2 (stereo not drawn)	97
77	COC(C)C(=O)C12CC3CC(CC(C3)C1)C2 (stereo not drawn)	105
78	COc1ccc(Br)cc1C1=N/C(=C\c2cc(OC)c(OC)c(OC)c2)C(=O)O1	125
79	COc1ccc(CNC(=O)c2ccc(N3CC4CC(C3)c3cccc(=O)n3C4)c(NC(=O)/C=C/c3ccccc3)c2)cc1 (stereo not drawn)	108
80	O=C(CSc1nnc(NC(=O)c2ccc([N+](=O)[O-])cc2)s1)Nc1ccc(Br)cc1	107

Given field by field: part of the list above.
#69 COC(=O)C1=C(C(=O)OC)SC(=C2C(=S)C(C)(C)N(C(=O)c3ccccc3-c3ccccc3)c3ccc(C)cc32)S1
  GIV Gai3 FP: 106

#72 Cc1ccc(CNS(=O)(=O)c2cc(-c3nc(C(C)(C)C)cs3)cs2)cc1
  GIV Gai3 FP: 102

Next section
cpd	Compound	GIV Gai3 FP
81	N#CC1=C(N)OC2=C(C(=O)CC(c3ccco3)C2)C1c1ccc(OC(=O)N2CCOCC2)cc1 (stereo not drawn)	107
82	CCC1(CC)Cc2ccccc2C(C2=C(O)CC(C)(C)CC2=O)=N1	115
83	N#CC1=C(N)n2c(s/c(=C\c3c(F)cccc3Cl)c2=O)=C(C#N)C1c1c(F)cccc1Cl (stereo not drawn)	108
84	CCOC(=O)c1c(S(=O)(=O)NCC(=O)Nc2ccccc2)c(C)n(CC)c1C	102
85	COc1ccc(OC)c(-n2c(=S)[nH]c3cc(C(=O)NCc4ccccc4Cl)ccc3c2=O)c1	107
86	COc1ccc(Cl)cc1NC(=O)Cn1nc2c3sc(N(C)C)nc3ncn2c1=O	102
87	CCOC(=O)C1=C(C)N=c2s/c(=C/c3ccc(O)cc3)c(=O)n2C1c1cc(OC)c(OC)cc1Br (stereo not drawn)	140
88	Cc1nc(Nc2nc3ccccc3c(=O)[nH]2)nc2c(C)cccc12	103
89	c1ccc(-c2cn3nc4c(nc3n2)CCCC4)cc1	107
90	COC(=O)c1ccc(N=Cc2nc(-c3cc(OC)c(OC)c(OC)c3)oc2O)cc1	95
91	Cc1cccc(-c2nccc(Oc3ccc(C(=O)Nc4ccc(F)cc4)cc3)n2)c1	100
92	COC(=O)CSc1nc(-c2cccs2)cc(-c2ccc(F)cc2)c1C#N	126
93	Cc1nn(-c2ccccc2)c2sc(C(=O)Oc3ccccc3Cl)cc12	108
94	CCc1ccc(-c2csc(-c3cc4cc([N+](=O)[O-])ccc4oc3=O)n2)cc1	111
95	Cc1oc(C2CCN(C(=O)Cc3ccsc3)CC2)nc1C(=O)N1CCCC1	99
96	COc1ccc(CCNC(=O)C(=O)Nc2ccc3c(c2)OCCO3)cc1OC	130
97	COc1ccc(C2C(C#N)=C(N)Oc3n[nH]c(-c4cccc([N+](=O)[O-])c4)c32)c(OC)c1 (stereo not drawn)	108
98	CN(C)S(=O)(=O)N1CCC(Oc2cc(N3CCOCC3)ncn2)C1 (stereo not drawn)	102
99	CCOc1ccc(C2Nc3ccc(C)cc3[C@H]3OCCC[C@@H]23)cc1OCC (stereo partly drawn)	101
100	COc1ccc(/C=C2/c3ccc(C)cc3-c3nc4ccccc4cc32)cc1OC	122
101	COC(=O)c1ccc2c(=O)n(CC3CCCO3)c(SCC(=O)N3CCN(c4ccccc4OC)CC3)nc2c1 (stereo not drawn)	106
102	CCN(CC)S(=O)(=O)c1cc(C(=O)N2CCN(C(=O)c3ccc(C)c(S(=O)(=O)N(CC)CC)c3)CC2)ccc1C	116
103	CC1(c2ccccc2)CC(C)(C)N(C(=O)Nc2ccccc2)c2ccccc21 (stereo not drawn)	106
104	Cc1cccc(N=CC23c4ccccc4C(c4ccccc42)C2C(=O)N(c4ccccc4Cl)C(=O)C23)c1 (stereo not drawn)	102
105	FC(F)(F)c1ccc(Cn2c3ccccc3c3nc4ccccc4nc32)cc1	112
106	Cc1nc(-c2ccc(Cl)c(S(=O)(=O)N3CCCC(C(=O)N4CCOCC4)C3)c2)no1 (stereo not drawn)	95
107	CCOC(=O)C1CCN(S(=O)(=O)c2cc3c(=O)[nH]nc(C)n3c2)CC1	92
108	O=S(=O)(c1cccc2nsnc12)N1CCN(c2ccc(F)cc2)CC1	118

The list is partial; rates above refer to the full screens.
